Calb FLC = C. albicans growth modulation with fluconazole; 300,000 tested, 0.57% active; growth inhibition, % (test concentration not listed); C. albicans CaCi-2 (fluconazole-resistant clinical isolate) + fluconazole, Alamar Blue growth, 48 h;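 active = most replicates above 75%; inconclusive = exactly half above 75%; inactive = most below 75%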;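 note: all wells also contain fluconazole at 8 µg/ml as a sub-toxic cotreatment; 0% = median of DMSO wells and 100% = median of geldanamycin control wells; wells of about 8 µL received 7.5 nL stock; the first replicate is given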
LANA-H2A inh = blocks KSHV LANA binding to histone H2A/H2B. inhibition, % (test concentration not listed). AID 2629. cell-free LANA-H2A/H2B peptide, fluorescence polarization. Q9QR71. 320,000 tested, 0.6% active; in the data active = inhibition mostly above about 10%, no sharp cut-off; inactive = mostly below about 6.7%;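 note: stock transfer was 7.5 nL into about 10 µL; 0% = median of vehicle wells and 100% = median of positive control wells; one replicate is shown; the record names a cut of 25% in any replicate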
HNF4A DNA FP = change in binding of human HNF4 alpha to DNA; P41235; HNF4a-FITC DNA binding, fluorescence polarization, 1 h; activity change, % at 10 µM; 360,000 tested, 0.3% active; AID 1224865; in the data active = activity change above about 30%, passing the limit was not always enough;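 note: controls were the assay level and a saturating level of protein; the project sought stronger binding though the title names inhibitors; some compounds called inactive have numbers as strong as hits; positive values seem to mean higher polarization but the record does not say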
Target sequence (P41235 whole entry, looked up): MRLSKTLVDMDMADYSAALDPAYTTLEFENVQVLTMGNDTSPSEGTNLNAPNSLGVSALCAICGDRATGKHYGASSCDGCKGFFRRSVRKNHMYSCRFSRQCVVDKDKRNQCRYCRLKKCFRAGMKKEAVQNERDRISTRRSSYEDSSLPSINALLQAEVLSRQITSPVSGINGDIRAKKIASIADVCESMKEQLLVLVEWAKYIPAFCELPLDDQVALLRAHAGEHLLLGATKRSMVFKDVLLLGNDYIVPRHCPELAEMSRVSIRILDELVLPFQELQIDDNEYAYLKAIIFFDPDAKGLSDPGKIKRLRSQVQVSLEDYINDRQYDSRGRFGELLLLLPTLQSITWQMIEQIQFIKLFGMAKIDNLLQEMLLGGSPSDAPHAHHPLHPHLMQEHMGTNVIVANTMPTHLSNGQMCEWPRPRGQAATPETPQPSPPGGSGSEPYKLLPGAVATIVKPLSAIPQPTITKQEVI
Vif A3G = inhibitors of Vif binding to APOBEC3G peptide, primary screen, biochemical, TR-FRET, GST-Vif 1-94, biotin-A3G peptide, dose response retest (AID 1117319); TR-FRET GST-Vif / biotin-A3G peptide binding; higher % means a stronger effect; test concentration not given here; strong numbers were not always called active; one-dose inhibition, %; IC50 in µM for titrated hits; 260,000 tested, 0.57% active;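 active = above the screen mean plus three standard deviations and confirmed in dose response; inconclusive = results disagree or hit not tested in dose response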;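 note: Vif residues 1-94 fused to GST binding biotinylated APOBEC3G peptide 110-148; 0% = full assay without inhibitor and 100% = GST in place of GST-Vif; retest series ran down from 100 µM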
B2AR ag = human beta-2 adrenergic receptor agonism by FAP | 340,000 tested, 0.43% active | Am2.2-beta2AR cells, FAP receptor internalization, flow cytometry; reference of the scale not given here | response, % (no concentration beside the values);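 active = response above a set limit, near 3 SD of response in nonfluorescent compounds, cut at about 42% in these data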;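 note: stock transfer was 100 nL into about 11 µL; a reference agonist was the positive control; negative values mostly stem from fluorescent compounds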
Target sequence (P07550 whole entry, looked up): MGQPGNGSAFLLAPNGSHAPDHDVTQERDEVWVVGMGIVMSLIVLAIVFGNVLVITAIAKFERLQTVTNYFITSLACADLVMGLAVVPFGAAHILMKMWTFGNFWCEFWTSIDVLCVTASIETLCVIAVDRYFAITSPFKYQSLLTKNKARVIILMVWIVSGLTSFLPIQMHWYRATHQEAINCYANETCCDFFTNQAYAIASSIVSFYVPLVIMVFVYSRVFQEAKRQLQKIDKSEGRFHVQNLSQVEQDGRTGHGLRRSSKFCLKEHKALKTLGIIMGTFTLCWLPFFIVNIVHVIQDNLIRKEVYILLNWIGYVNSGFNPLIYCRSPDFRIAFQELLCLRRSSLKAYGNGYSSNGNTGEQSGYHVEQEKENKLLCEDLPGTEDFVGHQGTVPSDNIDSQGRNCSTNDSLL
ALR inh = inhibitors of human sulfhydryl oxidase ALR; 290,000 tested, 3.8% active; inhibition, % (test concentration not listed); purified ALR, DTT oxidation, H2O2 HRP-luminol luminescence;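 active = mean and each replicate at 75% or more; inconclusive = only one of the two met; inactive = neither met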;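 note: stock transfer was 7.5 nL into about 7.5 µL; 0% = neutral wells and 100% = wells with inactivated enzyme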
Target sequence (P55789 whole entry, looked up): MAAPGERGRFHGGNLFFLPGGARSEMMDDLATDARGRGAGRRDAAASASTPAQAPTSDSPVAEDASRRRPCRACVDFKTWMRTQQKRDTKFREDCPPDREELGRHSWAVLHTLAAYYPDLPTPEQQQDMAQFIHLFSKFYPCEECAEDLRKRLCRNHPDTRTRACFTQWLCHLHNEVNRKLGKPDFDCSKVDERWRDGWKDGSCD
RanGTP-Impb inh = inhibitors of RanGTP-importin-beta interaction, primary screen, biochemical, FRET, CFP-Ran, YFP-importin-beta, homogeneous. inhibition, % (no concentration beside the values). AID 2216. 300,000 tested, 1.1% active. cell-free CFP-Ran/YFP-importin-beta FRET ratio;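 active = most replicates above 15%; inconclusive = exactly half above 15%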;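 note: 0% = DMSO wells and 100% = Ran loaded with GDP instead of GTP; wells of about 40 µL received 100 nL stock; the first replicate is given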
* = called active by the depositor; & = joins results of further samples. Compounds were not picked by outcome; any-hit rate near 6.3%.

Results for O=C(Nc1ccc(-c2nc3ccccc3[nH]2)cc1)c1cccc(N2C(=O)CCC2=O)c1 ?
Calb FLC: 5; LANA-H2A inh: -3.3; HNF4A DNA FP: -0.2; Vif A3G: -15%; B2AR ag: -13; RanGTP-Impb inh: 0.8

What do the screens show for `COc1ccc([C@H]2[C@H](C(C)=O)N3N=Cc4ccccc4C3C23C(=O)OC(C)(C)OC3=O)cc1` (some centres undefined)?
Calb FLC: 4; LANA-H2A inh: 0.0; HNF4A DNA FP: -0.6; Vif A3G: 1%; B2AR ag: 0; ALR inh: -2; RanGTP-Impb inh: 0.7

What do the screens show for `COc1cccc(NC(=O)N2C3CCCC2CC(NC(C)=O)C3)c1` (centres undefined)?
Calb FLC: 0; LANA-H2A inh: -0.2; HNF4A DNA FP: 0.1; B2AR ag: 1; RanGTP-Impb inh: 0.3

Results for CN(C)CCN(C(=O)C1CCN(S(=O)(=O)c2cccs2)CC1)c1nc2ccccc2s1 ?
Calb FLC: 13; LANA-H2A inh: 4.3; HNF4A DNA FP: 6.2; Vif A3G: -3%; B2AR ag: -5; ALR inh: -12; RanGTP-Impb inh: 4.7

Results for Cc1ccc(C(C)NC(=O)COC(=O)C2=COCCO2)cc1C (centres undefined) ?
LANA-H2A inh: 3.4; HNF4A DNA FP: -0.4; B2AR ag: -1; ALR inh: 0

How did O=C(Cn1ncc2c(=O)oc3ccccc3c21)NC1CC1 do in these assays?
Calb FLC: -4; LANA-H2A inh: 4.9; HNF4A DNA FP: 4.0; Vif A3G: -7%; B2AR ag: -7; ALR inh: 3; RanGTP-Impb inh: 0.7

Results for COc1cc(NC(=O)Cn2cnc3c(nc4n3CCCCC4)c2=O)cc(OC)c1OC ?
Calb FLC: -16; LANA-H2A inh: 6.4; HNF4A DNA FP: 0.8; B2AR ag: -4; ALR inh: -2; RanGTP-Impb inh: -3.2

How did CCN(CC)C(=O)[C@H]1CC(CC(=O)NCc2ccco2)C(=O)N2CCc3c([nH]c4ccccc34)[C@]12C (some centres undefined) do in these assays?
LANA-H2A inh: -1.5; HNF4A DNA FP: 0.9; Vif A3G: 2%; B2AR ag: -9

How did COc1ccc(NC(=O)CN2C(=O)/C(=C3\SC(=S)N(CCC(=O)O)C3=O)c3ccccc32)cc1 do in these assays?
Calb FLC: -12; LANA-H2A inh: -6.3; HNF4A DNA FP: 0.0; B2AR ag: 4; RanGTP-Impb inh: 1.6

Results for COC(=O)CCNC(=O)CCc1ccc(S(=O)(=O)N2CCCCCC2)cc1 ?
LANA-H2A inh: -238; HNF4A DNA FP: -1.4; Vif A3G: 1%; B2AR ag: 12; ALR inh: -6

Results for CCOc1cc(Br)ccc1S(=O)(=O)N1CCC(C(N)=O)CC1 ?
Calb FLC: 2; LANA-H2A inh: 5.4; HNF4A DNA FP: 1.8; Vif A3G: -4%; B2AR ag: 3; ALR inh: -38; RanGTP-Impb inh: 0.8

What do the screens show for `Cc1c(NN=C(C#N)C#N)c(=O)n(-c2ccccc2)n1C`?
Calb FLC: -10; LANA-H2A inh: -0.5; HNF4A DNA FP: -3.0; Vif A3G: 6%; B2AR ag: -2; ALR inh: 19; RanGTP-Impb inh: -17

Results for CC(=O)c1ccccc1C(=O)N1CCCC(N2CCN(Cc3ccc4c(c3)OCO4)CC2)C1 (centres undefined) ?
Calb FLC: 2; LANA-H2A inh: -3.4; HNF4A DNA FP: -1.4; Vif A3G: 5%; B2AR ag: 1; ALR inh: -1; RanGTP-Impb inh: 2.0

What do the screens show for `FC(F)(F)c1ccnc(NCc2ccc(Cl)cc2)n1`?
Calb FLC: 0; LANA-H2A inh: -4.4; HNF4A DNA FP: 1.4; B2AR ag: -3; ALR inh: 23; RanGTP-Impb inh: 0.3

How did Cc1onc(-c2ccccc2Cl)c1C(=O)NCc1ccc(S(N)(=O)=O)cc1 do in these assays?
Calb FLC: 1; LANA-H2A inh: -0.3; HNF4A DNA FP: 1.1; Vif A3G: 3%; B2AR ag: 5; ALR inh: -3; RanGTP-Impb inh: 5.9

What do the screens show for `COc1ccc2oc(C(=O)OCC(=O)NC(=O)c3ccccc3)c(C)c2c1`?
Calb FLC: 1; LANA-H2A inh: 1.3; HNF4A DNA FP: 1.6; B2AR ag: 1; ALR inh: -7; RanGTP-Impb inh: -0.3

Results for CCCNC(=O)c1ccc(N2CCC3(CC2)CC(c2ccccc2)=NO3)c([N+](=O)[O-])c1 ?
Calb FLC: 9; LANA-H2A inh: inactive; HNF4A DNA FP: 2.6; B2AR ag: -4; ALR inh: 3; RanGTP-Impb inh: -0.9

What do the screens show for `CN(CCC#N)S(=O)(=O)c1cc2c3c(c1)CCN3C(=O)CC2`?
Calb FLC: -1; LANA-H2A inh: 11; HNF4A DNA FP: 1.1; Vif A3G: 8%; B2AR ag: -2; ALR inh: -7; RanGTP-Impb inh: 1.7

What do the screens show for `CCOc1cc(C2NC(=O)NC(c3ccccc3)=C2C(=O)c2ccccc2)c(Br)cc1OCC(=O)O` (centres undefined)?
Calb FLC: -1; LANA-H2A inh: -2.0; HNF4A DNA FP: -0.6; Vif A3G: 7%; B2AR ag: -2; ALR inh: 1; RanGTP-Impb inh: inconclusive

What do the screens show for `CCCCCCn1c(SCCCC)nc2c1c(=O)[nH]c(=O)n2C`?
LANA-H2A inh: 6.0; HNF4A DNA FP: -2.1; Vif A3G: 2%; B2AR ag: -7; ALR inh: -4

What do the screens show for `C#CC(CC)(CC)NC(=S)Nc1ccc(S(N)(=O)=O)cc1`?
Calb FLC: -11; LANA-H2A inh: -1.5; HNF4A DNA FP: 2.9; Vif A3G: 19%; B2AR ag: 3; RanGTP-Impb inh: 2.1

Results for CCc1ccccc1NC(=O)c1ccc2c(c1)CCN2S(C)(=O)=O ?
Calb FLC: -9; LANA-H2A inh: -0.6; HNF4A DNA FP: -3.1; B2AR ag: -3; ALR inh: -11; RanGTP-Impb inh: 1.8

How did Cc1cc(C(=O)CCl)c(C)n1-c1cccc(S(=O)(=O)N2CCOCC2)c1 do in these assays?
Calb FLC: -21; LANA-H2A inh: 3.4; Vif A3G: 25%; ALR inh: 22; RanGTP-Impb inh: 1.6

Results for COC(=O)c1cc(CNC(=O)Cc2ccsc2)ccc1OC ?
Calb FLC: -2; LANA-H2A inh: -6.9; HNF4A DNA FP: 0.1; B2AR ag: 1; ALR inh: -11; RanGTP-Impb inh: -13

How did O=C1OC(C(=O)O)Cc2ccccc21 (centres undefined) do in these assays?
Calb FLC: 7; LANA-H2A inh: 7.9; HNF4A DNA FP: -0.1; Vif A3G: -1%; B2AR ag: -4; ALR inh: -20; RanGTP-Impb inh: 2.1

How did CCOC(=O)N1CCC(N2Cc3cccc(C(=O)NC(C)c4ccc5c(c4)OCCO5)c3C2=O)CC1 (centres undefined) do in these assays?
Calb FLC: 14; LANA-H2A inh: -0.9; HNF4A DNA FP: 0.2; Vif A3G: 0%&2%; B2AR ag: -4; ALR inh: -22; RanGTP-Impb inh: 1.3

How did O=C(CNC(=O)c1ccccc1C(=O)O)c1ccccc1 do in these assays?
Calb FLC: -7; LANA-H2A inh: 11; HNF4A DNA FP: -1.2; Vif A3G: 4%&-3%; B2AR ag: 6; ALR inh: -4; RanGTP-Impb inh: -3.2

What do the screens show for `N=c1c(C(=O)NC2CCCC2)cc2c(=O)n3ccccc3nc2n1C1CCCCC1`?
Calb FLC: 16; LANA-H2A inh: 1.4; HNF4A DNA FP: 0.4; Vif A3G: 6%; B2AR ag: -7; ALR inh: 2; RanGTP-Impb inh: 181*

How did COc1ccc(CCNc2oc(-c3ccc(OC)c(OC)c3)nc2P(=O)(OC)OC)cc1OC do in these assays?
Calb FLC: -11; LANA-H2A inh: 13; HNF4A DNA FP: -2.3; Vif A3G: 4%; B2AR ag: -4; ALR inh: 68; RanGTP-Impb inh: -1.6

How did CCOc1ccc(NC(=O)Nc2cc(C(=O)O)ccc2N2CC3CC(C2)c2cccc(=O)n2C3)cc1 (centres undefined) do in these assays?
Calb FLC: 1; LANA-H2A inh: -2.6; HNF4A DNA FP: 0.8; B2AR ag: -2; RanGTP-Impb inh: -2.5

How did Cc1ccc(C)c(OCC(=O)NNC(=O)CSC(=S)N2CCCC2)c1 do in these assays?
Calb FLC: -4; LANA-H2A inh: 1.7; HNF4A DNA FP: -2.5; Vif A3G: -1%; B2AR ag: -6; ALR inh: -2; RanGTP-Impb inh: 0.3

Results for O=C(Nc1ccc(F)c(F)c1)C1CCCCC1 ?
LANA-H2A inh: -1.5; HNF4A DNA FP: -1.5; B2AR ag: -1; ALR inh: -8

What do the screens show for `Cc1ccccc1COc1ccc(-c2nnn(CC(=O)O)n2)cc1`?
Calb FLC: 3; LANA-H2A inh: 4.0; HNF4A DNA FP: -0.4; Vif A3G: -1%; B2AR ag: -6; ALR inh: -6; RanGTP-Impb inh: 7.0

Results for Nc1ncnc2c1ncn2CCN1CCCCC1 ?
Calb FLC: 11; LANA-H2A inh: 1.4; HNF4A DNA FP: 0.1; Vif A3G: 2%; B2AR ag: 11; ALR inh: -1; RanGTP-Impb inh: 3.4

How did CCC(C)(C)NC(=O)CN(C(=O)CCC(=O)Nc1nccs1)c1cccc(C)c1 do in these assays?
Calb FLC: -4; LANA-H2A inh: 3.5; HNF4A DNA FP: 0.8; B2AR ag: -4; ALR inh: -7; RanGTP-Impb inh: 1.4

Results for CCC1(c2ccc(F)cc2)NC(=O)N(CC(=O)N(CCC#N)c2ccccc2)C1=O (centres undefined) ?
Calb FLC: 2; LANA-H2A inh: -3.9; HNF4A DNA FP: 2.6; B2AR ag: 0; RanGTP-Impb inh: 3.1

Results for CCOC(=O)C1CCN(C(=O)C2CCC(=O)N(Cc3cccc(C(F)(F)F)c3)C2)CC1 (centres undefined) ?
Calb FLC: 4; LANA-H2A inh: 4.7; HNF4A DNA FP: -4.4; B2AR ag: 9; ALR inh: -3; RanGTP-Impb inh: -1.2

What do the screens show for `CCc1ccc2oc(-c3ccc(N)cc3)nc2c1`?
Calb FLC: -21; LANA-H2A inh: 2.5; HNF4A DNA FP: 72*; Vif A3G: -1%; B2AR ag: 2; ALR inh: inconclusive; RanGTP-Impb inh: -3.6

Results for C/C(=N\O)c1ncc(C(F)(F)F)cc1Cl ?
Calb FLC: 0; LANA-H2A inh: -2.5; HNF4A DNA FP: -2.9; Vif A3G: 1%; B2AR ag: 8; ALR inh: 47; RanGTP-Impb inh: -1.2

What do the screens show for `CCN1CCN(c2ccc(N3CCN(S(=O)(=O)c4ccc(C)c([N+](=O)[O-])c4)CC3)nn2)CC1`?
Calb FLC: 2; LANA-H2A inh: -0.3; HNF4A DNA FP: 1.2; Vif A3G: 12%; B2AR ag: 3; RanGTP-Impb inh: 5.1

Results for COc1ccc(NS(=O)(=O)c2ccc(O)c(NC(=O)c3ccc(S(=O)(=O)N4CCCCCC4)cc3)c2)cc1 ?
Calb FLC: 25; LANA-H2A inh: -2.7; HNF4A DNA FP: -5.5; B2AR ag: 3; ALR inh: -4; RanGTP-Impb inh: 3.1

How did c1ccc(COc2ccc(CNCc3cccnc3)cc2)cc1 do in these assays?
Calb FLC: -3; LANA-H2A inh: -2.0; HNF4A DNA FP: 1.9; B2AR ag: -6; ALR inh: 0; RanGTP-Impb inh: 2.3

Results for O=c1nc(N2CCCC2)nc(Nc2ccccc2)[nH]1 ?
Calb FLC: -3; LANA-H2A inh: -3.7; HNF4A DNA FP: -1.8; Vif A3G: -11%; B2AR ag: -5; ALR inh: -4; RanGTP-Impb inh: -2.7

Random excerpt: two compounds from above, in no set order.
How did CCC(C)(C)NC(=O)CN(C(=O)CCC(=O)Nc1nccs1)c1cccc(C)c1 do in these assays?
Calb FLC: -4; LANA-H2A inh: 3.5; HNF4A DNA FP: 0.8; B2AR ag: -4; ALR inh: -7; RanGTP-Impb inh: 1.4

Results for O=C(Nc1ccc(F)c(F)c1)C1CCCCC1 ?
LANA-H2A inh: -1.5; HNF4A DNA FP: -1.5; B2AR ag: -1; ALR inh: -8

High-throughput results deposited in PubChem BioAssay by several laboratories.
